# Ba CapD inh: inhibitors of Bacillus anthracis CapD enzyme; z-score (test concentration not listed); purified CapD enzyme, fluorescence intensity read-out; hits give low values; some hits fall short of the stated cut; hit rate 0.23% among 140,000;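 active means z-score under -4 in either of two replicates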;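 further: stock transfer was 100 nL into about 40 µL; score is relative to mean and spread of the plate; one replicate is shown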
# AID504770: growth inhibitors of E. coli YBA685 in a screen for V. cholerae RctB (chromosome II replication) inhibitors | E. coli YBA685 rctB-dependent plasmid, OD600 growth, 3 h; hits give low values | z-score (concentration not given with the values) | hit rate 0.27% among 130,000 | AID 504770;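 active means z-score under -2 on both plates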;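 further: wells of about 30 µL received 100 nL stock; score is relative to mean and SD of the test wells; the first replicate is given; strong numbers were not always called active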
# * hit, by the source's call; . = not tested or not shown. Some of the compounds tested (hit frequency here may not be typical).
SMILES | Ba CapD inh | AID504770
CCc1ccc(C(=O)NC(=S)Nc2ccc3[nH]c(=O)[nH]c3c2)cc1 | -0.14 | 0.75
CC1=CC(=O)N2OC(C)=CC2N1 (centres undefined) | -0.68 | .
N=C1N(c2ccc(Cl)c(Cl)c2)C(=O)NC12CCCC2 | . | -0.15
CCn1c(=O)/c(=C2/Sc3ccc(Cl)cc3N2C)s/c1=C1/C(=O)N(C)N=C1C | . | -1.8
Cc1ccccc1CS(=O)(=O)CC1Nc2cc(C(=O)O)ccc2NC1=O (centres undefined) | . | 1
Cc1[nH]c2ccccc2c1SCCNC(=O)c1ccccc1 | -0.4 | -0.3
O=c1[nH]c(-c2ccc(S(=O)(=O)N3CCCC3)cc2)nc2sc3c(c12)CCCC3 | . | 2.5
COc1ccc(/C=C2\N=C(SCC(=O)N3CCN(C(=O)c4ccco4)CC3)N(c3cc(C)cc(C)c3)C2=O)cc1 | . | 0.05
COc1cscc1C(=O)NN1C(=O)c2c(C)nc3ccc(Br)cc3c2C1=O | -1.1 | .
O=C(O)CCCOc1ccccc1F | . | -0.25
O=C(OCCCN=C1NS(=O)(=O)c2ccccc21)C1CC(=O)N(c2ccccc2)C1 (centres undefined) | 0.015 | .
NS(=O)(=O)c1ccc(CCNC(=O)c2cc(=O)c3ccccc3o2)cc1 | -0.23 | -0.45
Cc1c(C(=O)NCc2ccc(Cl)cc2)sc2ncnc(N3CCOCC3)c12 | 0.86 | .
C(=N\c1nccs1)/c1cccnc1 | 0.14 | 1.5
c1cncc(-c2nc3ccccc3o2)c1 | 3.9 | -1.2
COc1cc(C2NC(=O)NC(C)=C2C(=O)OCC(C)C)ccc1OCc1ccccc1 (centres undefined) | -0.11 | .
N#Cc1c(C(F)(F)F)cc(-c2cccs2)[nH]c1=O | 59 | .
CSc1nc2cc(-c3ccc(Cl)cc3)nn2c(N)c1C#N | 0.15 | -0.65
O=C(Nc1ccccc1C(=O)NCc1cccnc1)c1ccc(Cl)cc1 | 0.34 | 0.4
CC(C)=C1C2C=CC1c1ccccc12 | 0.53 | -0.95
COc1cc(C2C(C#N)=C(N)Oc3n[nH]c(-c4cc(OC)c(OC)c(OC)c4)c32)ccc1OC(=O)N1CCOCC1 (centres undefined) | -0.12 | .
COc1cc(OC)c(NC(=O)NCCCN2CCC(N3CCCCC3)CC2)cc1Cl | -0.045 | -0.35
Cc1cc(F)ccc1S(=O)(=O)Nc1ccc(O)c(Sc2ncn[nH]2)c1 | . | 1.1
Cc1ccccc1N=c1scc(-c2ccc3c(c2)NC(=O)CO3)n1Cc1ccco1 | . | -0.1

# Compounds above with a Cl atom (6):
SMILES | Ba CapD inh | AID504770
N=C1N(c2ccc(Cl)c(Cl)c2)C(=O)NC12CCCC2 | . | -0.15
CCn1c(=O)/c(=C2/Sc3ccc(Cl)cc3N2C)s/c1=C1/C(=O)N(C)N=C1C | . | -1.8
Cc1c(C(=O)NCc2ccc(Cl)cc2)sc2ncnc(N3CCOCC3)c12 | 0.86 | .
CSc1nc2cc(-c3ccc(Cl)cc3)nn2c(N)c1C#N | 0.15 | -0.65
O=C(Nc1ccccc1C(=O)NCc1cccnc1)c1ccc(Cl)cc1 | 0.34 | 0.4
COc1cc(OC)c(NC(=O)NCCCN2CCC(N3CCCCC3)CC2)cc1Cl | -0.045 | -0.35

# Retrieved by compound from the entries so far, four records:
SMILES | Ba CapD inh | AID504770
Cc1cc(F)ccc1S(=O)(=O)Nc1ccc(O)c(Sc2ncn[nH]2)c1 | . | 1.1
C(=N\c1nccs1)/c1cccnc1 | 0.14 | 1.5
O=C(Nc1ccccc1C(=O)NCc1cccnc1)c1ccc(Cl)cc1 | 0.34 | 0.4
CC(C)=C1C2C=CC1c1ccccc12 | 0.53 | -0.95

# Carrying on:
SMILES | Ba CapD inh | AID504770
CN(C)CCNC(=O)c1cc2c(Cl)nc3ccccc3c2s1 | 0.39 | 0.5
O=C(CSC1=NC=NC2N=CNC12)N1CCN(Cc2ccc3c(c2)OCO3)CC1 (centres undefined) | . | 1.2
Oc1ccc2oc3c(c2c1/C=N/n1cnnc1)CCCC3 | 0.36 | 2.4
Cn1c(=O)c2c(nc(SCC(=O)NC(C)(C)C)n2C)n(C)c1=O | -0.27 | -0.05
CC(=O)c1cnn(-c2ccccc2)c1C | -0.2 | .
O=C(Oc1cc(=O)n2c3c(cccc13)CCC2)c1ccccc1 | 1.5 | -0.55
CN1CCCCC1CC(=O)O (centres undefined) | . | -0.4
CC(C)Cc1nc2ccccc2n1Cc1ccccc1 | -0.41 | -0.65
O=C(NCC1CCCO1)C1CCN(c2ncc(-c3ccc(Cl)cc3)cn2)CC1 (centres undefined) | -0.7 | .
Cc1nnsc1C(=O)N1CCN(c2cc(C(F)(F)F)ccn2)CC1 | 75 | 2
Cc1noc(C)c1CSc1ncccc1C(=O)N1CCc2ccccc21 | . | 0.25
COc1ccc(CCNC(=O)CN2C(=O)CCS(=O)c3ccccc32)cc1OC (centres undefined) | 0.47 | 0.35
Cc1ccc(N=C2NC(=O)C(Cc3cccc(C(F)(F)F)c3)S2)cc1 (centres undefined) | 0.37 | 0.05
O=C1C=C(O)c2cccc3cccc1c23 | -2.7 | -0.5
O=c1c2cc3c(cc2[nH]c(=S)n1C1CCN(Cc2ccccc2)CC1)OCO3 | 0.15 | 0.3
Cc1cc(C)c2nc(N3CCN(CCO)CC3)cc(C)c2c1 | . | -0.75
CCC(C)NC(=O)c1c[nH]c2ccc(S(=O)(=O)N(CC)c3ccccc3)cc2c1=O (centres undefined) | 2.8 | 2.5
O=C(OCC(=O)N1CCCC1=O)c1cccc(-n2cccc2)c1 | . | -0.05
Clc1ccc(Cn2c3ccccc3c3nc4ccccc4nc32)c(Cl)c1 | -0.29 | .
COc1ccc2c(c1)c1nc(N(C)C)nc3c1n2CCN3C | 115 | 2
Cc1ccc(N/C=C(/c2ccc(Cl)nc2)S(=O)(=O)c2ccccc2)cc1C | -0.14 | .
Oc1[nH]c(=S)sc1/C=N/c1nc2ccccc2[nH]1 | -1.1 | -0.35
Cc1c(C(=O)N2CCC(C(N)=O)(N3CCCCC3)CC2)sc2ncnc(N3CCN(c4ccccc4)CC3)c12 | -0.03 | .
CCSc1nnc2c(n1)OC1(Nc3ccccc3-2)C(=O)Nc2ccc(Br)cc21 (centres undefined) | -0.67 | 0.85
O=C(c1ccc(C23CC4CC(CC(C4)C2)C3)o1)N1CCOCC1 | -0.34 | -0.8
O=C(c1sc2ccccc2c1Cl)N1CCN(c2ccc(Cl)cc2[N+](=O)[O-])CC1 | -0.69 | .
CC(=O)Nc1ccc(-c2nc(-c3ccccc3)c3cc(C)ccc3n2)cc1 | 0.73 | .
COc1ccc(N(CC(=O)NCc2ccc(Cl)cc2)S(=O)(=O)c2ccccc2[N+](=O)[O-])c(OC)c1 | 0.05 | .
Cn1c(=O)c(C#N)nn(-c2ccccc2)c1=O | . | -0.1
COc1cc(S(=O)(=O)N2CCOCC2)ccc1NC(=O)COC(C)=O | . | 0.45
COc1ccc(-c2ccc(SCC(=O)N3CCC(C)CC3)nn2)cc1 | . | -0.4
COc1ccc(C2C(C#N)=C(N)Oc3n[nH]c(-c4cc(OC)c(OC)c(OC)c4)c32)c(OC)c1 (centres undefined) | -0.12 | .
O=C(c1ccccn1)N(Cc1ccco1)C1(C(=O)NC2CCCC2)CCCCC1 | 0.4 | 0.6
NC(=O)c1ccc(-c2ccccn2)s1 | 30 | .
COc1ccc(-c2cc(C(=O)Nc3ccc(OC)cc3OC)c3ccccc3n2)cc1 | 0.005 | .
